# From PubChem
# FEN1 inh: human FEN1 inhibition; Recombinant FEN1 flap cleavage, fluorescence, 15 min; Potency, µM (doses to about 114 µM), without a hit: top-dose activity change, negative = inhibition, actives largely listed as inhibitors; AID 588795; 390,000 compounds, 0.35% hits; P39748; further: nearly all actives have a fitted effect of over 65% in size
# Target sequence (P39748 whole entry, looked up): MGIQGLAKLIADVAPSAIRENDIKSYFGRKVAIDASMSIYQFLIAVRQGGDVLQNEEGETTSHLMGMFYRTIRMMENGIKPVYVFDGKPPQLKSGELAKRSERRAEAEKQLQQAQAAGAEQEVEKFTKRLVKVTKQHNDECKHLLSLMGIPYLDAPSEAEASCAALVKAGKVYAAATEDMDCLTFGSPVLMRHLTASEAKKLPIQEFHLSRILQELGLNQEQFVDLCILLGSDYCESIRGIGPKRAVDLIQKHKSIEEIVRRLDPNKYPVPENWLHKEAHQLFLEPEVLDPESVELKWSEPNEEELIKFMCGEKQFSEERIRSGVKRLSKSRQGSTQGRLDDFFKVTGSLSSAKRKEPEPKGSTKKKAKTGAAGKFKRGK
#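 Reaction started by adding substrate (50 nM final) to 10 nM enzyme after 15 min room-temperature compound preincubation. Reads at 0 and 15 min, with data normalized and fitted to a four-parameter Hill equation.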
# N370S GC: inhibits or activates N370S mutant glucocerebrosidase; N370S GC spleen homogenate, 4MU-glucoside fluorescence; Potency, µM (series often up to 59.4 µM), for the others: at the highest dose activity change, negative = inhibition, actives largely listed as inhibitors; 330,000 compounds, 0.092% hits; AID 2101;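 further: 0% = full enzyme activity and -100% = no enzyme basal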
# Starred values were filed as active, the others as inactive; ? = inconclusive; . = no result given; & = joins results of further samples; [ ] = dose if it differs, or a comment. The call rests on the fitted dose curve; in most records, active means well fitted curve in the direction sought with a large enough effect; inconclusive means small, poorly fitted or top-dose-only effect, or another doubt; inactive means no such curve, though single readings can be large; an effect the other way counts as inactive or inconclusive. Unless noted, on the % scale 0 is the no-effect control and ±100 the full control effect; potency means the concentration at half of the fitted maximal effect. An excerpt; most or all hits stand in other tables.
# The opening 4 records as a preview:
SMILES,FEN1 inh,N370S GC
Cn1cc(/C=N/NC(=O)COc2ccccc2[N+](=O)[O-])c2ccccc21,-14%,?
COC(=O)C1=C(C)N=C2SCCC(=O)N2C1c1cc(Br)ccc1OC (stereo not given),0%,12%
CC(NC(=O)NC12CC3CC(CC(C3)C1)C2)C1CCCO1 (stereo not given),-15%,8%
COc1ccccc1-n1c(=S)[nH]c2c(sc(=S)n2-c2ccccc2)c1=O,-4%,-14%

# The listing (from the top)
SMILES,FEN1 inh,N370S GC
Cn1cc(/C=N/NC(=O)COc2ccccc2[N+](=O)[O-])c2ccccc21,-14%,?
COC(=O)C1=C(C)N=C2SCCC(=O)N2C1c1cc(Br)ccc1OC (stereo not given),0%,12%
CC(NC(=O)NC12CC3CC(CC(C3)C1)C2)C1CCCO1 (stereo not given),-15%,8%
COc1ccccc1-n1c(=S)[nH]c2c(sc(=S)n2-c2ccccc2)c1=O,-4%,-14%
COc1ccc([C@H]2CC(=O)C=C(c3ccc(OC)cc3OC)C2)cc1,0%,.
Cc1ccc(NC(=O)/C=C\C(=O)N(c2ccc(C(C)C)cc2)C(C(=O)NCc2ccco2)c2ccc(Cl)cc2)cc1 (stereo not given),-23%,.
CN=c1scc(-c2c[nH]c3ccccc23)n1C,-6%,-8%
COc1cc(/C=N/NC(=O)c2cc(C3CC3)[nH]n2)cc(OC)c1OC,-15%,-4%
C=Cc1c(C)c2cc3[nH]c(cc4nc(cc5nc(cc1[nH]2)C(C)=C5CCC(=O)O)C(CCC(=O)O)=C4C)c(C)c3C=C,35µM*,-14%&-8%&-16%
COC(=O)c1ccccc1NC(=O)CN(c1cc(OC)ccc1OC)S(C)(=O)=O,-3%,25%
COc1ccc(CNC(=O)COC(=O)c2n[nH]c3ccccc23)cc1,3%,5%[2.35 µM]
CCn1c(=N)c(S(=O)(=O)c2ccc(C)cc2)cc2c(=O)n3ccccc3nc21,.,-9%
Cc1ccc(NC(=S)Nc2c(C)n(C)n(-c3ccccc3)c2=O)cc1Cl,-2%,-1%
CC1CCN(C(=O)N[C@@H](Cc2ccccc2)C(=O)O)CC1,4%,-4%
CC1CCCC(NC(=O)c2cccc(N3CCCC3=O)c2)C1C (stereo not given),-10%,14%
CCOC(=O)c1c(NC(=O)c2ccc(S(=O)(=O)N(CC)CC)cc2)sc2c1CCCCC2,-7%,.
COc1ccc(C(=O)Cn2nnc(-c3ccccc3F)n2)cc1,-14%,-4%
CCOC(=O)c1[nH]c2ccc(OC)cc2c1NC(=O)CCN1CCc2ccccc2C1,-7%,-6%
C[C@H](OC(=O)n1ccnc1)[C@@H]1O[C@@]2(C)CCC[C@@H]1O2,-1%,.
COc1ccc(CCNC(=O)CCNC(=O)c2ccco2)cc1OC,-10%,-4%
Cn1c(CNC(=O)c2ccc3c(c2)OCO3)nnc1SCC(=O)Nc1ccccc1F,4%,1%
Cn1c(C(=O)NCCN2CCc3ccccc3C2)cc2c(=O)n(C)c3ccccc3c21,?,3%
S=c1[nH]nc(COc2ccc(Cl)cc2)n1Cc1ccccc1,4%,-7%
COC(=O)/C=C1/S/C(=N/N=C/c2ccc(N(C)C)cc2)NC1=O,.,10%
O=C1CC(C(=O)NC2CCCCC2)C2(CCCCC2)O1 (stereo not given),-1%,-7%
SMILES,FEN1 inh,N370S GC
CC1CCCC(NC(=O)c2cccc(S(=O)(=O)NCc3ccccc3)c2)C1C (stereo not given),-10%,.
CCOC(=O)C1CCN(C(=O)C2CCN(c3ncnc4c3nc3n4CCCCC3)CC2)CC1,7%,-20%
Cc1cc(C(=O)COC(=O)c2ccc(NC(=O)CC#N)cc2)c(C)n1-c1ccc(OC(F)F)cc1,-4%,.
Cc1sc(NC(=O)C2CC(Cl)=CCC2C(=O)O)c(C#N)c1C (stereo not given),-2%,-2%
COc1ccc(C(=O)NCc2nnc(SCC(=O)NC3=NCCS3)n2C)cc1,2%,-2%
O=C1CC(N2CCc3ccccc32)C(=O)N1c1ccc(F)cc1 (stereo not given),1%,3%
Cn1c(SCC(=O)N2CCCCCC2)nc2c(c1=O)SCC2,18%,3%
O=C(COC(=O)c1ccc(F)cc1)NCCc1ccc(F)cc1,1%,-1%
CCc1nnc2sc(-c3ccc(NC(=O)c4ccc5c(c4)OCCO5)cc3)nn12,9%,-1%
Cc1ccc(NC(=O)C(C)S)cc1 (stereo not given),-14%,?
CCCCN(C)CCNC(=O)CCNC(=O)Cn1ccc2ccccc2c1=O,2%,-3%
O=C(c1ccc(Br)cc1)N1CCC(c2nc3ccccc3s2)CC1,7%,.
Cc1ccc(Sc2ccc(N3CCCC(C(=O)Nc4ccc(F)c(Cl)c4)C3)nn2)cc1 (stereo not given),0%,.
O=C(O)CCCC(=O)N1N=C(c2ccccc2)CC1c1ccc2nccnc2c1 (stereo not given),-6%,-3%
CCCNC(=O)c1ccc(COc2ccc(Cl)cc2)o1,-6%,-10%
Cc1ccnc(NS(=O)(=O)c2ccc(NS(=O)(=O)c3cc(Cl)ccc3Cl)cc2)n1,11%,-3%
CCCCn1c(N(CCOC(C)=O)C(C)=O)nc2ccccc21,13%,1%
O=C(/C=C/c1ccco1)NCc1ccc2c(c1)OCO2,0%,27%
O=C(CSc1n[nH]c(=O)n1-c1ccccc1)Nc1ccccc1,-3%,7%
O=C(NCC1CCCO1)c1cccc2ccccc12 (stereo not given),-2%,3%
CCn1c(Oc2ccc(F)cc2F)nc2c1c(=O)n(C)c(=O)n2C,-7%,.
C=C1c2ccccc2O[C@H](C(=O)OCC)[C@@H]1CC(C)(C)c1ccccc1,.,1%[89.1 µM]
O=C(Nc1ccc2c(c1)OCO2)c1cnn2c(C(F)(F)F)cc(-c3ccco3)nc12,3%,?
O=C1NC(=S)N/C1=C/c1cccnc1,0%,-3%
Cn1c(=O)n(CCc2ccccc2)c(=O)c2c1ncn2Cc1ccccc1,-14%,-1%
SMILES,FEN1 inh,N370S GC
CC(C)N=C(NC#N)SCC(=O)NC(C)(C)C,1%,1%[2.35 µM]
CCCN(C(=O)c1coc(=O)c2ccccc12)c1ccccc1C,-10%,.
COc1ccc(C(=O)NC(C(=O)N2CCc3ccccc32)C(C)C)cc1 (stereo not given),-5%,-6%
N/C(=N\OC(=O)Cc1ccccc1)c1ccncc1,-4%,-4%
O=C(NCCc1cccc(C(F)(F)F)c1)C1CCC(=O)N(CCc2cccc(F)c2)C1 (stereo not given),-15%,3%
O=c1n(-c2ccccc2)c(=O)n2n1CC(O)C2,9%,-4%
COCCn1cnnc1SCC(=O)Nc1ccc(N2CCCCC2)cc1,0%,.
Cc1ccc(-c2nn(-c3ccccc3)cc2/C=C2\SC(=S)N(CCCCCC(=O)O)C2=O)o1,32µM*,-6%
CN(C)CCn1c(=S)[nH]c2ccc(Cl)cc2c1=O,-3%,-3%
NS(=O)(=O)c1ccc(CCNC(=O)Cc2ccc(S(=O)(=O)N3CCCC3)s2)cc1,-14%,4%
Cc1ccc(-n2nnc3c(SCC(=O)NCc4ccco4)ncnc32)cc1,5%,3%
CCN(CC)S(=O)(=O)c1cccc(C(=O)Nc2nc3cc4c(cc3s2)OCCO4)c1,-20%,-15%
COc1ccc(N2CCN(C(CNC(=O)C(=O)NCc3ccncc3)c3ccco3)CC2)cc1 (stereo not given),19%,-11%
COc1cc2c(cc1OC)CN(c1nc(CN3CCOCC3)nc3sc4c(c13)CCCC4)CC2,-30%,-7%
CN([C@@H](Cc1ccc(OS(=O)(=O)c2cccc3cnccc23)cc1)C(=O)N1CCN(c2ccccc2)CC1)S(=O)(=O)c1cccc2cnccc12,-7%,-3%&-20%
COc1ccc(NC(=O)CO/N=C2/CCCc3nonc32)c(OC)c1,-3%,3%
CCOc1ccc(CCNC(=O)c2cc3ccccn3n2)cc1OCC,-10%,3%
O=C(Nc1ccc(Cl)c(Cl)c1)OCc1cccnc1,-9%,0%
CCNC(=S)Nc1cc(OCC)c(NC(=O)c2cccs2)cc1OCC,-7%,0%
CCC(C)Sc1cc(C(F)(F)F)c(C(=O)Nc2ccc(Cl)cc2)cn1 (stereo not given),-18%,2%
CCC1(N(C(C)=O)c2ccc(OC)cc2)C(=O)c2ccccc2C1=O,9%,7%
Nc1ncn(C2O[C@H](CO)[C@@H](O)[C@H]2O)c(=O)n1 (stereo not given in full),.,-17%
CCOC(=O)c1sc(=S)n(-c2cc(OC)ccc2OC)c1N,-6%,-16%
Cc1ccccc1-c1nnn(CC(=O)Nc2ccc3c(c2)OCO3)n1,1%,4%
COc1cccc(CN2CCN(S(=O)(=O)c3ccc(NC(C)=O)cc3)CC2)c1OC,-1%,-7%
SMILES,FEN1 inh,N370S GC
COC(=O)CSc1[nH]c2ccc(Br)cc2c1[N+](=O)[O-],-15%,-1%
O=C(O)c1ccc(-n2c(-c3ccccc3)n[nH]c2=S)cc1,-3%,14%
COc1cc(OC)c(OC)cc1/C=C1\CCC(C2CCCC2)C1=O (stereo not given),-25%,?
COC(=O)[C@@H]1CCCN1C(=O)CCc1nnc(C2CCCCC2)o1,-4%,-25%
O=C(CCc1ccccc1)Nc1cc2c3c(c1)CCC(=O)N3CCC2,0%,1%
CN(CC(=O)Nc1ccc2c(c1)OCO2)S(=O)(=O)c1ccc(F)cc1,-5%,-1%
Cc1nn(C)c(C)c1S(=O)(=O)NCc1cccs1,46%[activator],-2%
Nc1c(N(Cc2ccco2)C(=O)c2cccc(F)c2)c(=O)[nH]c(=O)n1Cc1ccccc1,8%,.
CCCCNC(=O)CCn1c(=O)c2ccccc2n(Cc2cccc(Cl)c2)c1=O,-1%,.
COc1ccc(Br)cc1CNC(=O)c1ccc2c(c1)nc1n2CCC(C)C1 (stereo not given),16%,.
CCSc1ccc([C@@H]2[C@H]3C(=O)N(C)C(=O)[C@H]3[C@]3(C(=O)OC)CCCCN23)cc1OC,?,-12%
Cc1ccccc1NC(=S)NCCc1ccccc1,7%,10%
O=C(NC(Cc1ccc2c(c1)OCO2)C(=O)N1CCCC1C(=O)O)c1ccccc1 (stereo not given),0%,-3%
O=C(NCC1CCCO1)c1cc(S(=O)(=O)N2CCOCC2)c(Cl)cc1Cl (stereo not given),-1%,-4%
Cc1cc2nc(=O)c(/C=C3\C=Nc4ccccc43)c(N)n2o1,0%,1%
CCOC(=O)C1(Cc2ccccc2Cl)CCN(Cc2csc(C(C)=O)c2)CC1,-15%,-13%
C/C(=N/NC(=O)c1ccc(Br)s1)c1cccnc1,-17%,-3%
COc1ccccc1N1CC(C(=O)Nc2nnc(SC)s2)CC1=O (stereo not given),-2%,-6%
CC(C)CO/N=C1/C[C@@H](O)[C@@H](O)[C@@H]2[C@@H]3C(=O)N([C@@H](C)c4ccccc4)C(=O)[C@H]3CC[C@H]12,.,4%[12.8 µM]
COc1ccc(C(=O)N(CCN2CCOCC2)CC(=O)NC2CCCC2)cc1OC,-5%,9%
COc1cccc(CCC(=O)N2CCC(n3nccc3NC(=O)CC(C)C)CC2)c1,26%,0%
CCc1ccc(-n2nc(C)c3c(C)cc(=O)n(CC(=O)N4CCCc5ccccc54)c32)cc1,-1%,.
O=C(c1ccc(OC2CCN(Cc3cccc(F)c3)CC2)cc1)N1CCCCC1,4%,-6%
CCc1ccc2nc(N3C(=O)C(O)=C(C(=O)c4ccco4)C3c3cccs3)sc2c1 (stereo not given),-6%,7%
COc1ccc(NC(=O)CSc2[nH]c(=O)cc(C)c2C#N)cc1OC,0%,-15%

# One compound at a time, as listed above.
# Listed for `CC(C)CO/N=C1/C[C@@H](O)[C@@H](O)[C@@H]2[C@@H]3C(=O)N([C@@H](C)c4ccccc4)C(=O)[C@H]3CC[C@H]12` → FEN1 inh: .; N370S GC: 4%[12.8 µM]
# Listed for `Cn1c(CNC(=O)c2ccc3c(c2)OCO3)nnc1SCC(=O)Nc1ccccc1F` → FEN1 inh: 4%; N370S GC: 1%

# Other records follow:
SMILES,FEN1 inh,N370S GC
CC(C)Cn1c(=O)c2sccc2n2c(CCCC(=O)N3CCN(c4ccc(F)cc4)CC3)nnc12,3%,.
S=C(NCc1ccccc1)NCc1ccc(CNC(=S)NCc2ccccc2)cc1,-15%,19%
COc1cccc(S(=O)(=O)NCc2ccc(C(=O)Nc3ccc(Cl)c(Cl)c3)cc2)c1,-10%,.
O=C(CSc1nnc(-c2ccco2)o1)N1CCOCC1,2%,-1%
CC(Oc1ccccc1)C(=O)N=C1SC2CS(=O)(=O)CC2N1c1ccccc1 (stereo not given),18%,0%
COc1ccc(S(=O)(=O)N(Cc2cccnc2)Cc2cc3ccccc3[nH]c2=O)cc1,4%,-14%
Cc1c(NC(=O)c2ccc(=O)oc2)c(=O)n(-c2ccccc2)n1C,-8%,8%
C/C(=C1/SC(N2CCOCC2)=NC1=O)c1ccc(Br)cc1,-3%,-13%
O=C(COC(=O)/C=C/c1ccc2c(c1)OCO2)NCc1ccccc1,9%,.
CC(=O)C1=C(O)C(=O)N(c2ccc(S(N)(=O)=O)cc2)C1c1ccccc1F (stereo not given),1%,3%
O=C(O)c1ccc(-c2nc(-c3ccccc3)c(-c3ccccc3)[nH]2)cc1,12%,12%
COc1ccc2c(c1)CCc1sc(NC(=O)c3ccc(Br)cc3)nc1-2,-15%,.
COc1ccc(C(=O)Nc2sc3c(c2C(=O)NCc2ccco2)CCCC3)cc1OC,-10%,10%[12.8 µM]
C#CCSc1nnc(CNS(=O)(=O)c2ccc(Br)cc2)n1C,-1%,-5%

# In another format: entries from further up
# Every second line gives: FEN1 inh	N370S GC
- CCn1c(Oc2ccc(F)cc2F)nc2c1c(=O)n(C)c(=O)n2C
→ -7%	.
- COc1ccc(NC(=O)CSc2[nH]c(=O)cc(C)c2C#N)cc1OC
→ 0%	-15%
